GLA inh pH 4.5: inhibitors of human alpha-galactosidase A at pH 4.5 | activity change, negative = inhibition, % at 105 µM | purified enzyme, 4-MU-alpha-Gal fluorescence, pH 4.5 | P06280 | 230,000 tested, under 10 active | AID 1467; inconclusive = small, poorly fitted or top-dose-only inhibition, or a rising curve; inactive = flat fitted curve, though single readings scatter; no compound was filed as active;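 note: 0% = full activity with enzyme and -100% = basal without enzyme; dose as in the result columns while the protocol names 77 µM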
Target sequence (P06280 whole entry, looked up): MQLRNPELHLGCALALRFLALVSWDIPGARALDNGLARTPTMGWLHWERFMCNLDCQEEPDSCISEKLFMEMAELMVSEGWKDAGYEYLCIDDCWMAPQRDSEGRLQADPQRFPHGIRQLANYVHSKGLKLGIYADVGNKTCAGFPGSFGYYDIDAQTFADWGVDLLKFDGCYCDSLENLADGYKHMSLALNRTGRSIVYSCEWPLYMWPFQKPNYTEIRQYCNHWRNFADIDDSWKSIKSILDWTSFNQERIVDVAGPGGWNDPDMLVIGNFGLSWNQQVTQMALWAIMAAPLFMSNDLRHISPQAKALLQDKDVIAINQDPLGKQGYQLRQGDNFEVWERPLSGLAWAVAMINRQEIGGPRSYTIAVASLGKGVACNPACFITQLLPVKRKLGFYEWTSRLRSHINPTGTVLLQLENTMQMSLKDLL
Rango release inh: prevents RanGTP from dissociating the Rango-importin beta complex; O95149+P62826; Biochemical FRET Rango-importin beta, RanGTP-induced dissociation; Potency, µM (doses to about 46.1 µM), without a hit: at the highest dose activity change, negative = inhibition; 340,000 compounds, 0.071% hits; active means falling FRET ratio curve, often poorly fitted, with flat reads before Ran was added; inconclusive means other falling curves, or compound fluorescence or quenching; inactive means flat or rising ratio curve;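 note: potency is the fitted concentration of half-maximal effect; % of control where 0% means no effect; nearly all actives have a fitted effect of over 45% in size; -100% = wells without RanGTP and RCC1; the record marks most hits as doubtful in a second field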
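Rango (0.1 uM)–importin beta (0.25 uM) complex; RanGTP-RCC1 trigger; 45 min RT; CFP/YFP FRET read.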
Rango complex inh: Rango-importin beta binding inhibition | Q14974 | Rango CFP/YFP FRET sensor + importin beta, 45 min | Potency, µM (series often up to 92.2 µM), without a hit: at the top dose inhibition of complex formation | 340,000 compounds, 0.031% hits; active = rising FRET ratio curve, often small or poorly fitted; inconclusive = mostly compound fluorescence or quenching in the first reads; inactive = flat curves in all reads;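 note: potency is the fitted concentration of half-maximal effect; 0% = DMSO wells and 100% = buffer wells lacking importin beta; nearly all actives have a fitted effect of over 15% in size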
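Inhibition scored from the CFP 486 nm/YFP 530 nm FRET ratio 45 min after adding 0.125 microM importin beta to 50 nM Rango biosensor preincubated 5 min with compound (room temperature, PBS with DTT, Tween-20, BSA). No-importin wells as positive control.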
miR-21 FLuc: miR-21 reporter, rising signal. HeLa miR-21 FLuc reporter, luciferase, 48 h. Potency, µM (doses to about 38.3 µM), inactives show at the highest dose reporter change, positive = more light. 340,000 tested, under 10 active; active = well fitted rising curve with a large enough effect; inconclusive = small, poorly fitted or top-dose-only effect; inactive = no such curve, though single readings can be large or run the other way;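 note: % of control where 0% means no effect; miR-21 action dims this reporter so a rising signal means less miR-21 action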
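HeLa cells endogenously expressing miR-21, stably carrying CMV-driven firefly luciferase with a downstream miR-21 binding site, 2000 cells/well. Titrations up to approximately 40 uM, 48 hours; luciferase luminescence read.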
Numbers without * were called inactive; ? = inconclusive; · = no result given.

entry	GLA inh pH 4.5	Rango release inh	Rango complex inh	miR-21 FLuc	Structure
1	0.5	12.1%	-0.3%	-4.6%	O=C1CCC(C(=O)Nc2ccccc2)N1 (stereo not given)
2	2.0	-15.3%	-2.4%	0.7%	Cc1c(Cl)cccc1NC(=S)NN1CCOCC1
3	-0.8	-23.6%	?	-2.5%	Cc1ccsc1/C=C/c1ccc2ccccc2n1
4	·	10.5%	-0.6%	·	Cc1ccc(C(=O)NCC(c2ccc(F)cc2)N2CCOCC2)s1 (stereo not given)
5	5.4	·	·	2.1%	CC(C)Oc1ccccc1C1CC(=O)Nc2c1c(=O)n(C)c(=O)n2C (stereo not given)
6	·	-15.6%	-0.5%	·	Cc1cc(C(=O)COC(=O)c2ccc(NC(=O)CC#N)cc2)c(C)n1C1CC1
7	·	23.1µM*	?	·	Cc1ccc(N)cc1O
8	1.5	-5.8%	0.2%	3.7%	Cc1nnc(C)n1/N=C/c1cccc([N+](=O)[O-])c1
9	2.4	10.4%	1.8%	-2.1%	CC(NC(=O)c1ccc(OC2CCN(C(=O)c3cccnc3)CC2)cc1)C1CC1 (stereo not given)
10	15.1	-3.2%	0.4%	4.2%	Cc1ccc(-c2csc3nc4cc(C(=O)NC5CCC(O)CC5)ccc4c(=O)n23)cc1 (stereo not given)
11	·	3.2%	-2.6%	-1.1%	COc1ccc(-n2nc3c(c2NC(=O)C2CC(=O)N(c4ccccc4)C2)CS(=O)(=O)C3)cc1 (stereo not given)
12	-1.0	9.6%	-1.8%	-2.2%	N#CCCN(CCC#N)c1nncs1
13	·	4.7%	-0.5%	7.4%	O=C(CCS(=O)(=O)c1ccc2c(c1)NC(=O)CS2)NCCc1ccc(Cl)cc1
14	1.2	-1.0%	0.7%	-3.2%	CCCCN1CCc2c1nc1ccc(Br)cc1c2N
15	-1.6	0.6%	0.3%	1.2%	Cc1cc(C)c(C#N)c(SCCS(=O)(=O)c2ccc(C(C)(C)C)cc2)n1
16	-3.5	17.0%	-1.3%	26.7%	Oc1ccc(Br)cc1-c1cc(-c2ccc(Cl)cc2)n[nH]1
17	-1.3	1.2%	2.4%	0.3%	CCC(=O)Nc1ccc(N2CCCCC2)c(C(=O)Nc2ccccc2C)c1
18	·	-7.2%	-4.3%	8.1%	CCN(C(=O)COC(=O)Cn1cnc2c1c(=O)n(C)c(=O)n2C)C1CCS(=O)(=O)C1 (stereo not given)
19	6.7	12.9%	4.8%	-3.5%	Cc1cccc(C(=O)NC2C(=O)NNC2c2ccc(Cl)cc2)c1 (stereo not given)
20	·	-2.1%	0.9%	-1.9%	CCN(CC)CCN(C(=O)C1=COCCO1)c1nc2c(OC)ccc(OC)c2s1
21	4.4	-1.4%	-1.6%	-0.1%	Cc1ccc(S(=O)(=O)n2cnc3cc([N+](=O)[O-])ccc32)cc1C
22	-1.3	0.7%	7.8%	2.0%	Cc1ccc(S(=O)(=O)/N=S(\C)C(C)C)cc1 (stereo not given)
23	·	4.6%	0.9%	1.4%	CC(C)(CC(=O)O)CC(=O)O
24	·	6.0%	0.5%	·	O=C(CSc1nc(=O)n2ccccc2n1)Nc1cccc2ccccc12
25	2.8	-5.1%	-4.4%	-9.7%	COc1ccc(NC(=O)CN2C(=O)C(C)Oc3ccccc32)cc1 (stereo not given)
26	-17.7	7.3%	-3.7%	-1.0%	COc1ccc(C(=O)OC(C(=O)c2ccccc2)c2ccccc2)cc1 (stereo not given)
27	·	0.8%	-0.5%	18.2%	CCc1ccc(CN2CCC(n3nccc3NC(=O)c3ccccc3C)CC2)cc1
28	·	-3.1%	-1.2%	-0.2%	O=C(CCCC(=O)c1ccccc1)NCCc1ccccc1
29	1.8	-20.5%	-1.1%	0.7%	Cc1cc(NC(=O)c2ccccc2F)nc2c1c(=O)oc1ccccc12
30	-12.6	0.2%	-1.7%	-2.2%	O=C(C[n+]1cccc(CNC(=O)c2ccc(OC(F)F)cc2)c1)Nc1ccc(F)cc1
31	-9.3	-2.6%	?	8.7%	CCC(C)(C)n1nnnc1CN1CCC(NC(=O)c2ccc(Br)cc2)CC1
32	-3.7	15.7%	5.9%	-1.7%	C=C(C)C1CC=C(C)/C(=N\NC(=O)CCC(=O)Nc2ccc(C)c(C)c2)C1 (stereo not given)
33	·	-0.4%	0.0%	·	CC(Sc1nnc(-c2ccccc2F)o1)C(=O)Nc1ccc(N2CCOCC2)cc1 (stereo not given)
34	-5.1	0.7%	4.8%	0.4%	COc1ccccc1N(C)S(=O)(=O)c1ccc(C(=O)OCC(=O)NCC(F)(F)F)cc1
35	-0.7	0.0%	-1.4%	0.5%	Cn1cc(C(=O)c2ccccc2)cc1-c1nc2ccccc2n1C
36	-6.1	-2.9%	?	4.3%	Cc1ccc(N=C2NC(=O)/C(=C/c3cccn3C)S2)c(C)c1
37	-0.7	-6.1%	-0.3%	-4.3%	O=S(=O)(NC1=NCCCCC1)c1ccccc1Cl
38	·	-8.2%	4.1%	·	O=C(Oc1ccc(F)cc1)c1ccc2c(=O)n3c(nc2c1)CCC3
39	·	10.4%	5.9%	-0.6%	CCOc1ccc(CCNC(=O)c2nccnc2C(=O)O)cc1OCC
40	2.1	0.9%	-1.1%	-59.8%	CS(=O)(=O)N1N=C(c2ccc(Br)cc2)CC1c1cccs1 (stereo not given)
41	24.1	?	?	?	Nc1cc2ccncc2c2ccccc12
42	1.5	10.1%	6.2%	4.5%	O=C(O)c1ccc2c(c1)C(=O)N(C(Cc1ccccc1)C(=O)O)C2=O (stereo not given)
43	·	-6.2%	-4.3%	-17.8%	COc1ccc(C(C)=O)cc1COc1cccc2cccnc12
44	1.8	3.7%	0.7%	21.8%	O=c1[nH]nc(CNc2ccc(O)cc2)c2ccccc12
45	-5.8	-6.0%	0.3%	-0.2%	CCOC(=O)C1CCN(S(=O)(=O)c2cccc(-c3cn4ccccc4n3)c2)CC1
46	0.9	0.6%	-3.0%	0.1%	C=CCNC(=O)C12CC3CC(C1)CC(C(=O)NCC=C)(C3)C2
47	10.0	-16.1%	?	-4.8%	CCc1ccc(C2CC(c3cccc(OC)c3)n3nc(N)nc3N2)cc1 (stereo not given)
48	9.5	-10.3%	3.0%	0.2%	S=c1[nH]nc(CN2CCCCC2)n1-c1ccc(Cl)cc1
49	2.3	?	?	-2.7%	CCCCCCn1c(=O)[nH]c2nc3cc(N)c(C)cc3nc2c1=O
50	9.1	3.4%	3.8%	-7.8%	COc1ccc(-n2cnc3cc([N+](=O)[O-])ccc32)cc1
51	-6.1	0.3%	-1.2%	-2.5%	CCOc1ccc(N(CC(=O)NC2CCCCCC2)S(=O)(=O)c2c(C)[nH]c(=O)[nH]c2=O)cc1
52	·	14.5%	-0.1%	4.0%	CCC(C)(C)NC(=O)C(c1ccc(OC)cc1)N(C(=O)CCC(=O)Nc1cc(C)on1)c1ccccc1OC (stereo not given)
53	·	-13.1%	-1.2%	·	O=C(Cc1ccccc1Cl)Nc1ccc(S(=O)(=O)N2CCOCC2)cc1
54	-3.1	-17.7%	?	-2.1%	CC[n+]1ccccc1/C=C/Nc1ccccc1
55	·	9.1%	0.8%	·	CC1CCC(NC(=O)c2cc(C3CC3)nn2-c2ccccc2)CC1 (stereo not given)
56	·	-1.0%	1.1%	·	O=C(Cc1cccc(NC(=O)C2CCCN(C(=O)C3CCCC3)C2)c1)Nc1cccc(C(=O)N2CCCCC2)c1 (stereo not given)
57	?	9.2µM*	?	-9.1%	CC(=O)Oc1ccc2c(C)c(CC(C)O)c(=O)oc2c1 (stereo not given)
58	-5.6	19.7%	8.0%	-6.1%	O=C(CN1C(=O)C2CC=CCC2C1=O)Nc1ccc(S(=O)(=O)NC2=NCCCCC2)cc1 (stereo not given)
59	-5.3	0.7%	4.9%	1.9%	CCOC(=O)NC(=O)COC(=O)c1ccc(O)cc1
60	-4.5	24.0%	3.9%	-3.4%	Cc1ccc(S(=O)(=O)/N=C(\N)Nc2nc(C)c3ccc(C)cc3n2)cc1

Compound profiles, from the list above. Order of values: GLA inh pH 4.5 | Rango release inh | Rango complex inh | miR-21 FLuc
CC(=O)Oc1ccc2c(C)c(CC(C)O)c(=O)oc2c1 (stereo not given) across the screens: ? | 9.2µM* | ? | -9.1%
CCOC(=O)NC(=O)COC(=O)c1ccc(O)cc1 across the screens: -5.3 | 0.7% | 4.9% | 1.9%
CC1CCC(NC(=O)c2cc(C3CC3)nn2-c2ccccc2)CC1 (stereo not given) across the screens: · | 9.1% | 0.8% | ·
O=C(Cc1ccccc1Cl)Nc1ccc(S(=O)(=O)N2CCOCC2)cc1 across the screens: · | -13.1% | -1.2% | ·

The listing continues.
entry	GLA inh pH 4.5	Rango release inh	Rango complex inh	miR-21 FLuc	Structure
61	-3.9	-6.0%	-0.3%	-3.5%	CN(c1ccc(C(=O)O)cc1)S(=O)(=O)c1ccccc1
62	-7.7	-7.0%	-1.8%	4.8%	COC(=O)c1cnc(N2CCCN(S(=O)(=O)c3ccccc3)CC2)nc1C(F)(F)F
63	-0.5	12.7%	5.1%	19.5%	CCn1nc(C)c(Br)c1Nc1ccc(Br)cc1
64	·	-20.5%	1.4%	1.5%	COc1cc(CN2CCNC(=O)C2CC(=O)NC2CCCC2)cc(OC)c1 (stereo not given)
65	-0.9	-13.0%	0.5%	12.1%	O=C(Nc1ccc(F)cc1)N(Cc1ccco1)Cc1cc2cc3c(cc2[nH]c1=O)OCO3
66	-0.2	1.1%	-2.3%	1.4%	Cc1cccc(NC(=O)CSCc2c(C)noc2C)c1C
67	3.6	-15.1%	1.1%	-1.6%	Cc1cccc(C)c1-n1c(SCC(=O)Nc2ccc(C(=O)O)cc2)nnc1-c1cccc(S(=O)(=O)N(C)C)c1
68	-2.2	10.3%	-2.8%	0.9%	O=C(NCC1CCCO1)C1CCCN(Cc2cnn(-c3ccccc3)c2-n2cccc2)C1 (stereo not given)
69	-9.1	-0.3%	-1.5%	-3.9%	CC(=O)N1CCN(C(C)=O)C1c1ccccc1
70	6.1	16.5%	-1.7%	1.5%	COc1cc([N+](=O)[O-])cc2cc(C(=O)NC(C)(C)C)c(=O)oc12
71	0.9	4.1%	-1.4%	0.6%	CNC(=O)CSc1nc2c(c(=O)n(C)c(=O)n2C)n1Cc1ccc(C)cc1
72	·	28.3%	-0.3%	1.7%	Cc1nnc(NC(=O)CSc2nnc(CNC(=O)c3ccc(S(=O)(=O)N(C)C)cc3)o2)s1
73	-14.4	-16.4%	-0.2%	?	O=C(NCc1ccco1)C1CCN(C(=O)c2cc3sccc3n2Cc2ccc(Cl)cc2)CC1
74	·	5.4%	-2.3%	-0.7%	O=C(C1CCCCC1)N1CCN(S(=O)(=O)c2cccc([N+](=O)[O-])c2)CC1
75	8.9	12.0%	-2.3%	-1.4%	CCCCOC(=O)Nc1nnc(CCc2ccccc2)s1
76	-4.2	-20.9%	-0.2%	-19.7%	CCOC(=O)Cc1nnc(NC(=O)c2cccc(OCC)c2)s1
77	·	9.1%	3.1%	-2.7%	COc1ccc(OC)c(N(CC(=O)NN=C2CCN(C)CC2)S(=O)(=O)c2ccccc2)c1
78	-14.7	?	?	-6.0%	Cc1cc(C)c(C#N)c(SCC(=O)c2cc(C)n(CCc3ccccc3)c2C)n1
79	-1.1	-9.3%	-2.6%	1.6%	Cc1ccc(-c2cc(C(=O)N/N=C/c3c[nH]c4ccccc34)[nH]n2)cc1
80	6.5	-4.4%	2.1%	-6.7%	COc1ccc(N(CC(=O)N2CCC(C)CC2)S(=O)(=O)c2c(C)nn(C)c2C)cc1
81	-0.3	-3.9%	-5.3%	-9.1%	O=C(Nc1ccc(S(=O)(=O)N2CCCC2)cc1Cl)C1=COCCO1
82	·	23.1%	3.6%	10.7%	Cc1nc(C(=O)N2CCCC(N3CCN(c4ccccc4C)CC3)C2)cs1 (stereo not given)
83	1.1	-7.9%	0.3%	-12.5%	COc1ccnc(N=CNOCc2cccc(Cl)c2Cl)c1C#N
84	·	?	0.7%	0.1%	CC(C)(CNC(=O)c1ccc(NS(=O)(=O)c2ccc(F)cc2)cc1)N1CCOCC1
85	·	-13.4%	-2.3%	-4.6%	COc1ccc(-n2c(CN3CCN(c4ccccc4OC)CC3)nc3ccc([N+](=O)[O-])cc3c2=O)c(OC)c1
86	8.0	1.8%	4.8%	27.4%	CN(C)c1cc[n+](CC(=O)c2ccc(OC(F)F)cc2)cc1
87	-3.2	15.4%	-0.6%	-30.9%	COc1ccc(-c2nn(-c3ccccc3)cc2/C=N/NS(=O)(=O)c2ccccc2)cc1
88	9.3	-1.2%	4.9%	0.3%	Cc1cccc(C)c1OCc1nnc(SCC(=O)Nc2nccs2)n1-c1ccccc1

An excerpt; the hit share may differ from the screen's.
